Screens deposited in PubChem BioAssay by National Center for Advancing Translational Sciences (NCATS).
NPR1 antag: human Npr1 receptor antagonism. AID 1347048. HEK293 hNpr1 GloSensor cGMP, ANP-stimulated luminescence. P16066. Potency, µM (titrated, usually from 46.3 µM), inactives show at the highest dose activity change, negative = inhibition, actives largely listed as inhibitors. 76,000 compounds, 1.6% hits; active = well fitted inhibition curve with a large enough effect; inconclusive = small, poorly fitted or top-dose-only effect; inactive = no such curve, though single readings can be large or run the other way;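 also: nearly all actives have a fitted effect of over 60% in size; nearly all hits also lower the signal before the agonist is added; a reference antagonist and vehicle were the controls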
Target sequence (P16066 whole entry, looked up): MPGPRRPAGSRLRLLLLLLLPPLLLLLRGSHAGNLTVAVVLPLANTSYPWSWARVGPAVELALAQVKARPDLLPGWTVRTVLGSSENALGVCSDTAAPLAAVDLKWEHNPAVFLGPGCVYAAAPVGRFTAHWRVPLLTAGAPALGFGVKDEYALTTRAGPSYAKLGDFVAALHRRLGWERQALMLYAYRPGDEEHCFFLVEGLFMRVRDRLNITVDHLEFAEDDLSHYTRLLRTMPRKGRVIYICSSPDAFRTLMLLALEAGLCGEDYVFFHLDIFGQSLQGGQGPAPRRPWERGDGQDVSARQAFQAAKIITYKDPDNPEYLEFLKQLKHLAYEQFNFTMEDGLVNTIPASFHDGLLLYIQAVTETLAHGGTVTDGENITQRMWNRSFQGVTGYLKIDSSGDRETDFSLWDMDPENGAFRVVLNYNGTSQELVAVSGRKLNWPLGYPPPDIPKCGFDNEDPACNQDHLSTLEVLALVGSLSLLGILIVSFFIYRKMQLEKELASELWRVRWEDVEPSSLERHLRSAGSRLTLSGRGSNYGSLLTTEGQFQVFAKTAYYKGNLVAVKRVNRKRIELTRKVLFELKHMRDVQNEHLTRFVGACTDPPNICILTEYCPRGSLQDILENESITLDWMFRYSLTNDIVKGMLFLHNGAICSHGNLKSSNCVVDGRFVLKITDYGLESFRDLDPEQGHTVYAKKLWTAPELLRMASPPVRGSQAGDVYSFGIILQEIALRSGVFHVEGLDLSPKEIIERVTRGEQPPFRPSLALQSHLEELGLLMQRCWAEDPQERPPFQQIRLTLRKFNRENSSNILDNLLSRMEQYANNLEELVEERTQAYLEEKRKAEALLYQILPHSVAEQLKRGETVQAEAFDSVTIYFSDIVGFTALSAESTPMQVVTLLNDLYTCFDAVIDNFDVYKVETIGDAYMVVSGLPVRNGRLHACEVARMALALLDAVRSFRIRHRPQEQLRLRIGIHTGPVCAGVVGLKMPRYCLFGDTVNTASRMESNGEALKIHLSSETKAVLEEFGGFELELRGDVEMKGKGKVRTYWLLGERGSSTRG
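HEK293 cells stably expressing human Npr1 and cGMP GloSensor pGS-40F, loaded 2 h with 2% GloSensor reagent, given compound 30 min at room temperature. Luminescence read before and 20 min after 0.1 nM hNppA.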
An asterisk follows results filed as active; ? = inconclusive; [ ] = dose if it differs, or a comment. % is scaled to controls: 0 for no effect and ±100 for the full control effect; potency is read from the fitted curve at half-maximal effect. Only part of the results is shown (hit frequency here may not be typical).

NPR1 antag | structure
? | COC(=O)c1ccc2nc(CO[C@H]3CN(Cc4ccc(C(F)(F)F)cc4)C[C@H]3F)[nH]c2c1
6%[70.6 µM] | CN[C@@H](CC(C)C)C(=O)N[C@H]1C[C@@](O)(C(=O)N[C@H]2CCCNC2=O)C[C@@H](O)[C@@H]1O
? | COc1ccc(CN2CCc3nc(C(=O)NCc4ccncc4)oc3CC2)cc1
6% | c1coc(-c2ccnc3nc(-c4cccs4)nn23)c1
0%[70.6 µM] | O[C@@H]1CO[C@H]2[C@@H]1OC[C@@H]2n1cc(-c2ccccn2)nn1
-6% | CCOC(=O)C1=C(C)N=C2SC=C(CC(=O)Nc3ccc(OC)cc3)N2C1c1cccc(OC)c1 (stereo not drawn)
-29% | O=C(Nc1ccc2ncnc(N3CCCC3)c2c1)c1cccc(Br)c1
4% | CCCCC(=O)N1C[C@@H](CO)[C@H](c2nc(C)no2)C1
0% | O=C(NCc1ccc(N2CCOCC2)cc1)c1cccc2c1CCN2C(=O)C1CC1
2% | COCCN1C(=O)c2ccccc2C(C(=O)Nc2ccc(OC)cc2)C12CCCC2 (stereo not drawn)
6% | CNC(=O)c1cc[nH]c1C1CCCN(C(=O)CCc2c[nH]c3ccccc23)C1 (stereo not drawn)
-1% | C=CCNC(=O)C1CC(=O)N(c2n[nH]c3cccc(F)c23)C1 (stereo not drawn)

Filtered by structure: the entries above containing a halogen (three)
NPR1 antag | structure
? | COC(=O)c1ccc2nc(CO[C@H]3CN(Cc4ccc(C(F)(F)F)cc4)C[C@H]3F)[nH]c2c1
-29% | O=C(Nc1ccc2ncnc(N3CCCC3)c2c1)c1cccc(Br)c1
-1% | C=CCNC(=O)C1CC(=O)N(c2n[nH]c3cccc(F)c23)C1 (stereo not drawn)

In a second layout: entries from further up.
> COC(=O)c1ccc2nc(CO[C@H]3CN(Cc4ccc(C(F)(F)F)cc4)C[C@H]3F)[nH]c2c1
  NPR1 antag: ?
> CN[C@@H](CC(C)C)C(=O)N[C@H]1C[C@@](O)(C(=O)N[C@H]2CCCNC2=O)C[C@@H](O)[C@@H]1O
  NPR1 antag: 6%[70.6 µM]

(listing goes on)
NPR1 antag | structure
-7% | CCOc1ccccc1C1NC(=O)N(CC(=O)NC2CCCCC2)C2=C1C(=O)OC2 (stereo not drawn)
0% | CN1CC(=O)N(C2CCC2)Cc2c1ncnc2N1CCC(c2ccccc2)CC1
-11% | COc1ccc(C2Cn3cnc(-c4nc(-c5ccc6c(c5)OCO6)no4)c3CO2)cc1 (stereo not drawn)
3%[70.6 µM] | NC(=O)CN1C(=O)[C@@H]2CN(C(=O)c3ccc4c(c3)OCO4)CCN2C1=O
4% | COC(=O)c1ccc2nc(C[C@@H]3C[C@@H](C(C)C)[C@H](CNCc4ccccc4F)C=C3C)[nH]c2c1
-10% | CC(C)CC(=O)N1CCC(Oc2ccccc2)C1 (stereo not drawn)
0%[70.6 µM] | Cc1noc(C)c1[S+](=O)([O-])N1CCC2(CC1)OCCN(Cc1ccccc1)C2=O
-2% | CNC(=O)[C@@H]1CN(C(=O)c2ccoc2C)C[C@H]1c1nc(C)no1
2% | Cc1ccc(-n2c(C3CCN(C(=O)c4ccc(F)c(F)c4)CC3)n[nH]c2=O)cc1
1% | CC(C)(C)C(=O)N1CCC2(CC1)NCCc1c2[nH]c2ccccc12
-3% | CC(=O)N1CCN(C(=O)C2CCNCC2)C[C@@H]1C(=O)N[C@@H](CC1CCCCC1)C(N)=O
-23% | COc1cccc(CN2CCCN(Cc3ccncc3)C(c3ccccc3)CC(=O)NCC2)c1 (stereo not drawn)

2 compounds drawn at random from the list so far:
NPR1 antag | structure
0% | O=C(NCc1ccc(N2CCOCC2)cc1)c1cccc2c1CCN2C(=O)C1CC1
4% | COC(=O)c1ccc2nc(C[C@@H]3C[C@@H](C(C)C)[C@H](CNCc4ccccc4F)C=C3C)[nH]c2c1

Following part
NPR1 antag | structure
0% | CC[C@@]1(O)CCN(C(=O)c2cnc(N3CCOCC3)nc2)C[C@H]1O
-19% | CN(C)c1cccc(Oc2nnnn2[C@H]2CO[C@H]3[C@@H]2OC[C@@H]3NC(=O)Nc2ccc(Oc3ccccc3)cc2)c1
1% | Cc1cn2nc(C(=O)N3CCC(NC(=O)c4cccn4C)CC3)cc2c(=O)[nH]1
-1%[70.6 µM] | Cc1cccc([S+](=O)([O-])N2CCC3(CC2)OCCN(c2cccnc2)C3=O)c1
8%[70.6 µM] | Cc1ccc(-c2noc([C@@H]3Cc4nc[nH]c4CN3C(=O)COCC(=O)O)n2)cc1
13µM* | Cc1ccc(NC(=O)N2CCCC(c3noc(COc4ccccc4)n3)C2)c(C)c1 (stereo not drawn)
1% | Cc1ccc(CNC(=O)CC2CCCCN(C)C2=O)cc1 (stereo not drawn)
-4% | CC(C)(C)n1nnnc1C1CC2(CCOCC2)C(=O)N1Cc1ccccc1 (stereo not drawn)
1% | Cc1nc2c(c(-c3ccc(Cl)cc3)n1)CCN(C(=O)C(C)(C)C)CC2
1% | Cc1cc(=O)cc(C(=O)N2CCC(O)(CN3CCOCC3)C(C)(C)C2)o1 (stereo not drawn)
0% | CCc1nnc([C@@H]2CC(F)(F)CN2C(=O)COc2ccccc2)o1
-18% | CN1c2cc(C(=O)NCCCc3ccccc3)ccc2C(=O)N2CCCC21 (stereo not drawn)
-20%[70.6 µM] | c1ccc(CCCN2CC[C@H](c3nc4ccccc4s3)C2)cc1
2% | O=C(Nc1ccc2c(c1)OCCO2)N1CCN(C(=O)N2CC3CC(C2)[C@H]2CCCC(=O)N2C3)CC1 (stereo partly drawn)
17% | CC(=O)Nc1ccc(CN2CCC3(CC2)CC(=O)Nc2ccccc2O3)cc1
0% | CC1(c2ccccc2)N(Cc2cccnc2)C(=O)OC12CCN(C(=O)c1ccc(F)cc1)CC2 (stereo not drawn)
-4%[70.6 µM] | O=C(c1ccnc(-c2nnc3ccc(Nc4ccccc4)nn23)c1)N1CCCCC1
1% | COc1ccc(-c2ccc3nnc(CNC(=O)c4ccc(F)c(Cl)c4)n3n2)cc1
1% | O=C(CCc1ccccc1)Nc1cccc(-c2nnc3n2CCCC3)c1
-2% | COc1nc2ccccc2nc1CCC(=O)N[C@H]1COC[C@H]1Cc1cc(C)no1
2% | COc1ccc(NC(=O)CN2C(=O)NC3(CCS(=O)(=O)CC3)C2=O)c(OC)c1
-6% | c1ccc(Cc2cc(C3CCN(Cc4cc5n(n4)CCNC5)CC3)n[nH]2)cc1
2% | c1cc2nnc(C3CCC3)n2nc1N1CCOCC1
-2%[70.6 µM] | O=C(c1cnccn1)N1CCN2C(=O)NC[C@H]2C1
? | Cc1ccccc1CC1(CO)CCCN(c2ccc(-c3nccn3C)nn2)C1 (stereo not drawn)
-1%[70.6 µM] | Fc1ccccc1-c1cc2c(ccn2Cc2ccncc2)c(N2CCOCC2)n1
-3% | CCS(=O)(=O)Nc1ccc(C2(C(=O)NCc3cc(F)cc(F)c3)CCCCC2)cc1
6% | CCn1ncc(CN2CCCC(c3nc(-c4cccnc4)no3)CCNC(=O)CC2)c1C (stereo not drawn)
15% | CC(=O)N1CCC2(CC1)CC(=O)N(c1ccccc1)c1ccccc1O2
2% | COc1ccc(NC(=O)CCc2cc3ccccc3[nH]c2=O)cc1OC
2% | O=C(Nc1ccc2c(c1)OCCO2)N1CCCC(Cn2c(C3CC3)nc3cccnc32)C1 (stereo not drawn)
-6% | CN(CC1CCOCC1)S(=O)(=O)c1ccc(F)cc1
-1%[70.6 µM] | O[C@@H]1C[C@@H](c2nc(Cc3ccccc3)no2)N(Cc2cc3ccccc3o2)C1
-11% | CCc1ccccc1NC(=O)C1c2ccccc2C(=O)N(CCOC)C12CCCCC2 (stereo not drawn)
0% | O=C(c1ccc(OC2CCN(C(=O)c3ccoc3)CC2)nc1)N1CCOCC1
5%[70.6 µM] | Cc1noc2c(NC3CCN(C)CC3)cc(-c3cccc(C(F)(F)F)c3)nc12
3% | COCCO[C@H]1C(=O)N(C2CCN(C(=O)c3ccoc3)CC2)[C@H]1c1ccncc1
-1% | Cc1ccc(C(=O)N2CCCCCCNC(=O)[C@@H]3C[C@@H](C(=O)N4CCc5ccccc5C4)C[C@@H]32)s1
-1%[70.6 µM] | COc1ccc(NC(=O)[C@@H]2C[C@@H](c3cccc(C(F)(F)F)c3)N(C)C2)c(C)c1
0% | C[C@@H]1CN(C2(C(=O)NCc3ccncc3)Cc3ccccc3C2)C[C@H](C)O1
13µM* | O=C1OCC2=C1C(c1ccc(Cl)cc1)NC(=O)N2CC(=O)N1CCC(Cc2ccccc2)CC1 (stereo not drawn)
? | Cc1cccc(-c2cc(C3CCN(S(=O)(=O)c4cccc(C#N)c4)CC3)[nH]n2)c1
-1% | O=C(O)[C@@H]1CN(C(=O)c2ccn[nH]2)C[C@H]1c1ccc2c(c1)OCO2
-1% | COCCN1C(=O)c2ccccc2C(C(=O)N2CCOCC2)C12CCCCC2 (stereo not drawn)
4% | COc1cc2c(cc1OC)C(CNC(=O)C1CC1)N(C(=O)NC(C)C)CC2 (stereo not drawn)
-14% | O=C(Nc1ccc2ncnc(N3CCCCC3)c2c1)c1ccc2c(c1)OCO2
-15%[70.6 µM] | COc1cccc(CN2CCCn3nc(C)c(-c4ccccc4[S+](C)(=O)[O-])c32)c1
? | COc1cccc(C(=O)N2CCC3(CC2)N=C(c2ccc(Br)cc2)NO3)c1

Entries listed above marked active in NPR1 antag:
NPR1 antag | structure
13µM* | Cc1ccc(NC(=O)N2CCCC(c3noc(COc4ccccc4)n3)C2)c(C)c1 (stereo not drawn)
13µM* | O=C1OCC2=C1C(c1ccc(Cl)cc1)NC(=O)N2CC(=O)N1CCC(Cc2ccccc2)CC1 (stereo not drawn)

Continuation:
NPR1 antag | structure
-17% | COCCOC(=O)C1=C(C)N=C2SC=C(CC(=O)NC3CC3)N2C1c1ccccc1C (stereo not drawn)
-2%[70.6 µM] | COC(=O)[C@@H]1Cc2ncn(C(C)C)c2CN1S(=O)(=O)c1ccccc1
3% | CC(=O)N[C@H]1CCN(CCC(=O)Nc2ccc(F)c(Cl)c2)C1
-15%[70.6 µM] | COc1cc(C)c2c(c1C)C[C@H](C(C)C(=O)NC(C)(C)C)CC2 (stereo partly drawn)
2% | COC[C@@H]1CN(Cc2c(C)n[nH]c2C)C[C@H]1c1nc(C)no1
-2% | O=C(NC1CCCC1)N1CCCC(Cn2cnc3cccnc32)C1 (stereo not drawn)
-1% | CC(C)c1nnc(NC(=O)C[C@H]2NC(=O)c3ccccc3NC2=O)s1
-2% | CCOCCn1nc(C)cc1C(=O)N[C@H]1[C@H]2CCO[C@H]2[C@@H]1N(C)C
-19% | COCCC1(C(=O)O)CCCN(CC(=O)NCCc2ccccc2)C1 (stereo not drawn)
-10%[70.6 µM] | O=C1N[C@@H]2CCN(S(=O)(=O)Cc3ccccc3)[C@@H]2C(=O)N1c1ccc(F)cc1
2% | O=C1CCCN1CCCN1C(=O)[C@H]2CN(Cc3cccs3)C[C@H]2C1=O
3% | O=C1CN(C(=O)CCC(=O)N2CCC(Cc3nncn3-c3ccccc3)CC2)c2ccccc2N1
2% | Cc1cnc(C(=O)N[C@@H]2CCC[C@@H]2C(=O)N2CCN(c3cccc(Cl)c3)CC2)cn1
4%[70.6 µM] | Cc1ccccc1C(=O)NC1CCCN(c2nc3ncccc3o2)C1 (stereo not drawn)
1% | Cc1cnc(CN2CCC3(CC2)CCN(C(=O)Cc2cccnc2)CC3CO)[nH]1 (stereo not drawn)
-15% | O=C(Nc1cnc(-c2cccc(Cl)c2)nc1)c1nccc2ccccc12
? | Cc1ccc(C(=O)N2CCCN(c3cc(-c4ccc(Cl)cc4)[nH]n3)CC2)cn1
1.3µM* | CCC(C)NC(=O)N1CC(Oc2ccc(-c3nc(-c4ccccc4)no3)cc2)C1 (stereo not drawn)
-29% | O=C(C1CCCC1)N1CCc2onc(-c3ccc(C(F)(F)F)cc3)c2C1
-1% | C[C@]1(CO)[C@H]2Cc3sc(NC(=O)c4c(F)cccc4F)nc3[C@@H](CC(=O)NCCN3CCOCC3)[C@]2(C)CC[C@H]1O
1% | O=C(N[C@H]1CO[C@H]2[C@@H]1OC[C@@H]2n1nnnc1Oc1ccc(-n2ccnc2)cc1)N1CCOCC1
-7% | CCOCCOC1CCN(C(=O)Cc2cccc(F)c2)CC1
2% | COc1ccc(-c2nc3cc(C)ccc3cc2CN2CCC(NC(C)=O)C2)cc1 (stereo not drawn)
11% | Cn1nc(C2CCN(c3cncc(C(N)=O)n3)CC2)n(-c2ccccc2)c1=O
10% | COc1ccc(C(=O)N[C@@H]2CCOC[C@H]2Oc2ccccn2)c(F)c1F
-2% | O=C(C1CC(=O)N(c2n[nH]c3ccccc23)C1)N1CCSCC1 (stereo not drawn)
7% | CCOC(=O)CNC(=O)N1CCC(N2C(=O)C(OCC3CC3)C23CCCCC3)CC1 (stereo not drawn)
-2% | CCNc1ncc(CN2CCC(N)(C(=O)O)C2)cn1 (stereo not drawn)
-3% | COc1ccc(Cl)cc1-c1ccc2c(c1)C(=O)N1CC[C@H](NC(=O)C3CCCC3)[C@H]1C(=O)N2
-3% | COc1ccc(C(=O)N2CCC3(CC2)NCCc2c3[nH]c3ccccc23)cc1
4% | COc1ccc2c(C)c(C(=O)NCc3nc(-c4ncccn4)no3)oc2c1
10% | CC(C)=CCC1(C(=O)O)CCCN(C(=O)C2(Cn3cccn3)CC2)C1 (stereo not drawn)
-9% | Cc1ccc(-n2nc3n(c2=O)CCN([S+](=O)([O-])c2ccc(C)cc2)C3)cc1
-1% | CCN(CC)S(=O)(=O)c1ccc(-c2nc(C)ccc2OC)cc1
-2%[70.6 µM] | O=C(C[C@@H]1C[C@H]2O[C@H](CNCc3cnccc3Cl)[C@@H](O)[C@H]2O1)N1CCC(F)(F)C1
? | O=C1CN(C(=O)CCC(=O)N2CCC(CCOc3ccc(F)cc3)C2)c2ccccc2N1 (stereo not drawn)
